Screening data from PubChem.
Sa growth 42C: S. aureus growth inhibition at 42 and 30 °C, primary screen, LtaS inhibitor project, RN4220, two temperatures; OD600, 20 h, 42 °C; hits give low values; relative growth, % (test concentration not listed); 170,000 tested, 0.53% active; AID 720641, 2013;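 active means growth at 42 °C up to 50% and 20 or more points under that at 30 °C, or under 10% at both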;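 further: 300 nL library stock went into each well; scaled to the means of positive and negative controls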
HCMV NEC inh: inhibitors of HCMV UL50-UL53 interaction, biochemical, HTRF. HCMV UL50-UL53 nuclear egress complex (human cytomegalovirus). normalized percent inhibition. inhibition, % (test concentration not listed). 190,000 tested, 0.15% active. AID 1918969, 2023;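 active means both replicates at 50% or more, plus weaker picks with an unusually low signal ratio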;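 further: stock transfer was 100 nL into about 20 µL; 0% = negative control wells and 100% = wells with untagged competitor protein; inactives centre near -12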
GIV-Gai inh: inhibitors of GIV peptide binding to Galpha-i3, primary screen, biochemical, fluorescence polarization, FITC-GIV GBA peptide, rat Galphai3; 90 min; hits give low values; scaled: aluminum fluoride 0%, vehicle 100%; percent of control (FP), % (concentration not given with the values); 210,000 tested, 0.42% active;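 active means replicate mean at 85% of control or lower, very high polarization wells dropped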;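 further: wells of about 15 µL received 100 nL stock; the first replicate is given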
Target sequence (P08753 whole entry, looked up): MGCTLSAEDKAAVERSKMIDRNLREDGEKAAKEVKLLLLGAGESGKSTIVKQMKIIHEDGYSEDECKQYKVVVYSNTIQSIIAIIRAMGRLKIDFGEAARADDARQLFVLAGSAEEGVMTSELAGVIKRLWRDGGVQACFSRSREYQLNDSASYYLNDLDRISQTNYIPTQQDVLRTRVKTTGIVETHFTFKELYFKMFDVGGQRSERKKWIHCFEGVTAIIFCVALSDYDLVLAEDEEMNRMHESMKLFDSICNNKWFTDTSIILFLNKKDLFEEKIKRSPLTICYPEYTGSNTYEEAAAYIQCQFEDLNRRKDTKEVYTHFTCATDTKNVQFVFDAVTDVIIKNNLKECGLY
Sa growth 42C second temp: recorded beside Sa growth 42C, whose call it bears; relative growth, %; measured here: growth at 30 °C;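 optical density after 20 h as mean of two plates; 100% = untreated growth and lower means inhibition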
* hit, by the source's call; . = no result given; & = joins results of further samples.

Values run as follows: Sa growth 42C | Sa growth 42C second temp | HCMV NEC inh | GIV-Gai inh
> CCN1CCN(c2ccc(N=Cc3ccc(N(C)C)cc3)cc2)CC1
    92 | 77 | -12 | 104
> O=S(=O)(NCCn1c(-c2ccc(F)cc2)nc2cccnc21)c1ccc(Br)cc1
    . | . | -20 | 110
> CN1CCCN(C(=O)Cc2c(Cl)cccc2Cl)c2nc3ccccc3nc21
    78 | 98 | -16 | .
> Cc1[nH]c(C)c(S(=O)(=O)N2CCC(C(=O)NCc3ccccc3Cl)CC2)c1C(=O)N1CCCC1
    . | . | -1 | 105
> Cc1ccc2nc(SCC(=O)Nc3ccccc3)[nH]c2c1
    85 | 101 | 20 | .
> COc1ccc2oc(-c3cccc(F)c3)cc(=O)c2c1
    107 | 89 | -3 | 95
> Cc1ccc(-c2[nH]c3ccccc3c2SCCNC(=O)c2ccc(S(=O)(=O)N3CCOCC3)cc2)cc1
    98 | 89 | -9 | 105
> O=c1nc(SCc2ccccc2Cl)c2c(n1Cc1ccccc1)CCC2
    . | . | -17 | 102
> CCOC(=O)CSc1nc(=O)cc(N)n1Cc1ccc(F)cc1
    100 | 98 | -27 | 109
> CCOc1ccc(C(=O)NCCn2cc(SCC(=O)Nc3ccc4c(c3)OCCO4)c3ccccc32)cc1
    87 | 88 | -26 | 101
> COc1ccc(C(c2cc3c(cc2O)OCO3)N2CCOCC2)cc1 (stereo not given)
    1.8* | -0.8* | 1 | .
> O=C(Cc1nn[nH]n1)Nc1ccc(F)cc1
    98 | 92 | . | 100
> Cc1cc2c(N=NC(=O)Nc3ccccc3)c(O)[nH]c2cc1Br
    99 | 87 | -5 | 111
> CCc1cccc(Nc2c(CC)c(C)nc3ncnn23)c1
    . | . | -4 | 102
> Cc1[nH]c2ccccc2c1C(=O)CN1CCOCC1
    . | . | -8 | 98
> CC(=O)Oc1ccc(-c2ccc(C(=O)NCCCN3CCCC3=O)cc2)cc1
    87 | 84 | -5 | .
> CCCCn1c(CNc2ccc(C)cc2)nnc1SCC(=O)OC
    104 | 75 | -4 | 104
> CN(C(=O)CSc1nnc2c3ccccc3n(C)c2n1)C1CCCCC1
    109 | 104 | -25 | 103
> COc1ccc(N2CC(NC(=O)C3CC3)CC2=O)cc1 (stereo not given)
    99 | 87 | . | 93&105
> Cc1cccc(Cl)c1NC(=S)NC(Cc1ccccc1)c1ccccc1 (stereo not given)
    47 | 34 | -31 | 104
> CC1=C(C(=O)c2ccccc2)C(c2ccc(F)cc2)NC(=O)N1 (stereo not given)
    102 | 90 | -17 | .
> COc1ccc(OC)c(-c2cc(C(=O)Nc3cccc(Cl)c3C)no2)c1
    97 | 91 | 2 | 106
> CCN(c1cccc(C)c1)S(=O)(=O)c1ccc2[nH]cc(C(=O)NCCCOC)c(=O)c2c1
    98 | 98 | . | 102
> Cc1ccc(-c2nc3c(cnn3-c3ccccc3)c(=O)n2-c2cccc(C)c2)cc1
    98 | 99 | . | 104
> CC(C)(C)OC(=O)N/N=C\c1cccs1
    95 | 92 | -51 | 100
> COc1cc(C(=O)OCC(=O)c2cc(C)n(C3CC3)c2C)cc2c1OCCO2
    96 | 101 | -6 | .
> CC(C)(C)n1nnnc1C(c1ccc2ncccc2c1)N1CCOCC1 (stereo not given)
    99 | 74 | -10 | 110
> COc1ccc(-c2nc3nc(CN4CCN(C)CC4)cc(=O)n3[nH]2)cc1
    . | . | -21 | 100
> CCOC(=O)c1cnc(Nc2nc3ccccc3o2)nc1CSc1ncccn1
    73 | 88 | -40 | 105
> CCN(Cc1ccccc1)c1ncnc2c1nnn2C
    95 | 90 | . | 94&106
> Cc1ccc(S(=O)(=O)c2nc(-c3cccs3)oc2N2CCCCC2)cc1
    116 | 92 | -14 | 98
> CCCSc1nnc2c(n1)OC(c1cc3c(cc1[N+](=O)[O-])OCO3)Nc1ccccc1-2 (stereo not given)
    . | . | -54 | 100
> Cn1cnnc1SCC(=O)NCc1cccc(C(F)(F)F)c1
    95 | 91 | . | 105
> CCN(CC(=O)NCc1ccc(F)cc1)C(=O)c1cccnc1SC
    79 | 85 | -34 | .
> CC(C)n1cc2c(c1-c1ccccc1Cl)c(=O)n(C)c(=O)n2C
    105 | 91 | -1 | 97
> Cc1ccc(CN(C(=O)c2ccccc2)C2CCS(=O)(=O)C2)cc1 (stereo not given)
    116 | 84 | -31 | 109
> c1ccc(-c2nnn(-c3cnc4ccccc4c3)n2)cc1
    103 | 83 | . | 102
> CCOC(=O)c1c(N2C(=O)CCC2=O)sc2c1CCC(C)C2 (stereo not given)
    66 | 61 | 3 | 105
> CCNc1cc(Cl)nc(SC)n1
    . | . | -6 | 112
> COc1ccc2nc(NC(=O)NC34CC5CC(C3)CC(c3ccc(C)cc3)(C5)C4)sc2c1
    . | . | -9 | 126

The final 4 entries of the section above lead into the next:
Values run as follows: Sa growth 42C | Sa growth 42C second temp | HCMV NEC inh | GIV-Gai inh
> c1ccc(-c2nnn(-c3cnc4ccccc4c3)n2)cc1
    103 | 83 | . | 102
> CCOC(=O)c1c(N2C(=O)CCC2=O)sc2c1CCC(C)C2 (stereo not given)
    66 | 61 | 3 | 105
> CCNc1cc(Cl)nc(SC)n1
    . | . | -6 | 112
> COc1ccc2nc(NC(=O)NC34CC5CC(C3)CC(c3ccc(C)cc3)(C5)C4)sc2c1
    . | . | -9 | 126
> O=C(c1ccc(NS(=O)(=O)c2ccccc2)cc1)N1CCCC1
    113 | 103 | -2 | 99
> CC1(C)CN(c2ccc(N3CC(C)(C)C3=O)cc2)C1=O
    . | . | -12 | 100
> COc1ccc(C(=O)OCc2cc(C)on2)cc1Br
    105 | 73 | -6 | .
> COC(=O)C1CSCN1C(=O)Nc1ccccc1 (stereo not given)
    95 | 98 | 2 | .
> CCOC(=O)C1CC1c1ccccc1 (stereo not given)
    127 | 105 | -16 | 103
> CC(=O)n1nc(-c2cccc(C)c2)nc1N
    . | . | -12 | 104
> CC(C)CCNc1cc(=O)n(C)c(=O)n1C
    100 | 84 | -7 | 108
> Cc1ccc2[nH]c(C)c(CCNC(=O)c3cc4cc(Br)ccc4oc3=O)c2c1
    99 | 82 | -3 | 106
> N#Cc1c(-c2cccnc2)c2c([nH]c1=O)-c1ccccc1CC2
    105 | 87 | -35 | 104
> CC1CCc2nc3ncn(Cc4ccccc4C#N)c(=O)c3cc2C1 (stereo not given)
    73 | 89 | . | 101
> Clc1cccc(C=NN2CCN(Cc3ccccc3)CC2)c1Cl
    86 | 93 | . | 98
> CCCN(CCC)C(=O)c1cnn(-c2ccccc2)c1NC(=O)c1ccccc1
    120 | 83 | 10 | .
> Cc1cccc(NC(=O)CN2C(=O)CC(c3ccccc3)Sc3ccccc32)c1 (stereo not given)
    112 | 85 | 0 | 104
> COc1ccccc1C(=O)Nc1ccccc1-c1nnn(CC(=O)N2CCN(c3ccc(F)cc3)CC2)n1
    100 | 73 | -10 | 102
> COC(=O)C1=C(C)NC2=C(C(=O)CC(c3ccc(Cl)cc3)C2)C1c1ccccc1 (stereo not given)
    90 | 69 | . | 103
> CCc1ccc(NC(=O)CSC)cc1
    78 | 85 | -5 | 102
> COc1cc(S(=O)(=O)Nc2ccc(Nc3cc(N(C)C)nc(C)n3)cc2)c(C)cc1C
    . | . | 7 | 94
> CCOC(=O)CCn1cc(/C=C(\C#N)C(N)=S)c(-c2ccccc2)n1
    90 | 92 | -35 | .
> O=C(Nc1ccc(Cl)cc1)C1CCCCC1
    111 | 108 | 8 | 102
> COC(=O)C1=C(C)NC2=C(C(=O)CC(C)(C)C2)C1c1sccc1C (stereo not given)
    95 | 95 | -7 | 101
> COc1ccc2nc3sc(C(=O)N4CCN(c5ccccc5)CC4)cc3cc2c1
    96 | 85 | -17 | 103
> CCCCn1c(-c2cccc(Br)c2)nc2ccccc21
    69 | 46 | 5 | 107
> Cc1ccc(NC(=O)CCn2c(=O)c3cccn3c3ccccc32)cc1
    82 | 84 | -12 | 103
> CCCC1=Nc2cc(C(=O)NC3CCCCC3)ccc2Sc2ccc(C)cc21
    117 | 95 | . | 100
> CCCc1cc2c(=O)c(-c3ccccn3)coc2cc1OC
    82 | 89 | -20&10 | 109
> Nc1c(NCC(c2ccco2)N2CCCCC2)c(=O)[nH]c(=O)n1Cc1ccccc1 (stereo not given)
    86 | 86 | -19 | .
> Cc1ccc(CN2CCN(C3CCN(C(=O)c4cnccn4)CC3)C(=O)C2=O)cc1
    . | . | 7 | 102
> C/C(c1cccs1)=[N+](/[O-])C(C)/C(=N/O)c1ccco1 (stereo not given)
    89 | 91 | -32 | .
> CC(=O)N1CCCSc2ccc(S(=O)(=O)N(C)C3CCCCC3)cc21
    . | . | -19 | 98
> O=C(Nc1ccc(Br)cc1C(F)(F)F)C(F)(F)F
    95 | 69 | . | 98
> CC1(C)Oc2ccc(C(=O)N/N=C/c3cccs3)cc2NC1=O
    96 | 92 | -67 | 99
> Cc1cccc(N2CCN(C(=O)Cc3ccc(-n4c(=O)[nH]c5ccsc5c4=O)cc3)CC2)c1C
    119 | 87 | . | 98
> Cc1ccc(C)c(C(=O)COC(=O)CCCC(=O)Nc2cc(C(F)(F)F)ccc2Cl)c1
    98 | 82 | -31 | 109
> Fc1cccc(-c2cc3nc4c(c(NCCCN5CCOCC5)n3n2)CCCC4)c1
    106 | 55 | -5 | 102
> CC(NC(=O)c1ccc(F)cc1)C(c1cccs1)N1CCN(C)CC1 (stereo not given)
    79 | 84 | . | 98
> O=C(Nc1ncn[nH]1)c1cccc(Br)c1
    113 | 69 | -5 | 102
> CCOc1ccc(NC(=O)c2ccc3c(c2)S(=O)(=O)N=C2CCCCCN23)cc1
    120 | 102 | 9 | .
> COc1ccc(NC(=O)c2ccc(NC(=O)CCS(=O)(=O)c3cccs3)cc2)cc1OC
    105 | 88 | -15 | 106
> CCc1ccc(NC(=O)c2nn(-c3ccc(C)cc3)c(=O)c3c2c2ccccc2n3C)cc1
    79 | 87 | . | 101
> O=C(NCCCO)c1cc2sc3ccccc3c2s1
    111 | 88 | -19 | 102
> CN1CCN(c2ccccc2NS(=O)(=O)c2ccc3c(c2)SCC(=O)N3)CC1
    110 | 87 | . | 101
> CCN(C(=O)CSc1nnc(-c2cc3occc3n2C)n1-c1ccccc1C)c1cccc(C)c1
    111 | 98 | . | 107
> Cc1ccc(-c2csc(N)n2)cc1C
    . | . | -22 | 101
> COc1cc2c(=O)n(Cc3ccc(C(=O)NC4CC4)cc3)c(=O)n(Cc3cccc(Cl)c3)c2cc1OC
    . | . | -24 | 103
> Cc1cc(C)cc(-n2c(-c3ccc(Cl)cc3)cn3c4c(=O)n(C)c(=O)n(C)c4nc23)c1
    . | . | -31 | 98
> O=S1(=O)N=CNc2ccc(S(=O)(=O)Nc3ccccc3)cc21
    93 | 92 | -7&-3 | 103&105
> COc1cccc(NC(=O)CCc2c(C)nn3cnnc3c2C)c1
    . | . | -11 | 103
> CC1=C(C(=O)OC2CCCCC2)C(c2ccc(OCc3ccccc3)cc2)NC(=O)N1 (stereo not given)
    . | . | -8 | 99

Gathered by group, the compounds so far with an NH in an aromatic ring (13)
Values run as follows: Sa growth 42C | Sa growth 42C second temp | HCMV NEC inh | GIV-Gai inh
> Cc1[nH]c(C)c(S(=O)(=O)N2CCC(C(=O)NCc3ccccc3Cl)CC2)c1C(=O)N1CCCC1
    . | . | -1 | 105
> Cc1ccc2nc(SCC(=O)Nc3ccccc3)[nH]c2c1
    85 | 101 | 20 | .
> Cc1ccc(-c2[nH]c3ccccc3c2SCCNC(=O)c2ccc(S(=O)(=O)N3CCOCC3)cc2)cc1
    98 | 89 | -9 | 105
> O=C(Cc1nn[nH]n1)Nc1ccc(F)cc1
    98 | 92 | . | 100
> Cc1cc2c(N=NC(=O)Nc3ccccc3)c(O)[nH]c2cc1Br
    99 | 87 | -5 | 111
> Cc1[nH]c2ccccc2c1C(=O)CN1CCOCC1
    . | . | -8 | 98
> CCN(c1cccc(C)c1)S(=O)(=O)c1ccc2[nH]cc(C(=O)NCCCOC)c(=O)c2c1
    98 | 98 | . | 102
> COc1ccc(-c2nc3nc(CN4CCN(C)CC4)cc(=O)n3[nH]2)cc1
    . | . | -21 | 100
> Cc1ccc2[nH]c(C)c(CCNC(=O)c3cc4cc(Br)ccc4oc3=O)c2c1
    99 | 82 | -3 | 106
> N#Cc1c(-c2cccnc2)c2c([nH]c1=O)-c1ccccc1CC2
    105 | 87 | -35 | 104
> Nc1c(NCC(c2ccco2)N2CCCCC2)c(=O)[nH]c(=O)n1Cc1ccccc1 (stereo not given)
    86 | 86 | -19 | .
> Cc1cccc(N2CCN(C(=O)Cc3ccc(-n4c(=O)[nH]c5ccsc5c4=O)cc3)CC2)c1C
    119 | 87 | . | 98
> O=C(Nc1ncn[nH]1)c1cccc(Br)c1
    113 | 69 | -5 | 102
